# eIF4H FP inh – human eIF4H binding inhibitors, primary screen, translation initiation inhibitor project, biochemical, uHTS, fluorescence polarization. 290,000 tested, 0.94% active. eIF4H fluorescence polarization binding assay. inhibition, % at 35 µM. Eukaryotic translation initiation factor 4H (Homo sapiens), Q15056;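 active means 50% or more with normal probe brightness, or confirmed in later tests; inconclusive means above 50% with abnormal brightness, or retests that disagree; inactive means below 50% or failed in later tests; about a fifth of its hits are not listed in these tables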;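 further: calls also rest on retests at 20 µM and on dose response follow-up; 0% = protein and probe with vehicle and 100% = probe without protein; strong numbers were not always called active; many hits fall short of the cut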
# Rce1 inhib – yeast Rce1p protease inhibitors, primary screen, biochemical, fluorescence, cell-free homogeneous | CAAX prenyl protease 2 (Saccharomyces cerevisiae (strain ATCC 204508 / S288c)), Q03530 | 290,000 tested, 0.27% active | yeast membranes, quenched prenylated peptide cleavage fluorescence | AID 2563, 2010 | calls only;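 active means fall in fluorescence gain of 50% or more versus controls, with final raw signal at or below 3038400; inconclusive means same 50% fall but final raw signal above 3038400; inactive means fall in fluorescence gain under 50%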;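 further: plate controls were neutral control wells for no effect and wells lacking membranes for full effect; tested at 10 µM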
# Target sequence (Q03530 whole entry, looked up): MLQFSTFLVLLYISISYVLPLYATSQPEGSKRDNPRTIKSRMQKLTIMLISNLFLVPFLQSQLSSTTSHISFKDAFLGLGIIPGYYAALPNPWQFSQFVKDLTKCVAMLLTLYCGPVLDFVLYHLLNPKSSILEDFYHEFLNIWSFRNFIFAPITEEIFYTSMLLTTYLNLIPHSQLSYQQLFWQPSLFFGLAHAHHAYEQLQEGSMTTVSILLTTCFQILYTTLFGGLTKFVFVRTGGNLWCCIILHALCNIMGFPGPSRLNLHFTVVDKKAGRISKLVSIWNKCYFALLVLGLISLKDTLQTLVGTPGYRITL
# CSC inhib – cancer stem cell viability inhibitors, primary screen, luminescence; cancer stem cell-like cells viability; inhibition, % at 7.5 µM; 300,000 tested, 1.1% active; AID 2717, 2010;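 active means mean at 75% or more and at least half the replicates too; inconclusive means mean and replicates disagree; tested in HMLE shEcad cells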;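 further: 0% = median of negative and 100% = median of positive control wells; the first replicate is given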
# MT1-MMP act inh – blockers of MT1-MMP proenzyme processing, primary screen, HT1080 RFP-PRO-GFP cells, GFP/RFP fluorescence | Matrix metalloproteinase-14 (Homo sapiens), P50281 | GFP/RFP ratio fluorescence, overnight; percent of plate control window, DMSO zero | GFP/RFP ratio change, % at 20 µM | 360,000 tested, 0.061% active | AID 651647, 2012;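 active means GFP/RFP ratio change of at least 30% with cell ATP level not reduced by more than half and red fluorescence within 50% of control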; further: strong numbers were not always called active
#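 Assay system: HT1080 cells carrying an RFP-PRO-GFP reporter | Dosing: Single dose of 20 µM compound, 1% DMSO final | Incubation: Cells overnight before dosing, compound overnight, 37 °C, 5% CO2 | Evaluation: GFP/RFP fluorescence ratio | Control set: DMSO and RFP-L50D-GFP cell wells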
# PABP FP inh – PABP poly(A) RNA binding inhibitors, primary screen, biochemical, fluorescence polarization, uHTS. Polyadenylate-binding protein 1 (Homo sapiens), P11940. inhibition, % at 35 µM. 290,000 tested, 1% active. AID 2014, 2009;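 active means 50% or more with normal probe brightness, or confirmed in later tests; inconclusive means above 50% with abnormal brightness, or retests that disagree; inactive means below 50% or failed in later tests; about a fifth of its hits are not listed in these tables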;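 further: calls also rest on retests at 20 µM and on dose response follow-up; controls were probe without protein and protein plus probe with vehicle; some compounds called inactive have numbers as strong as hits; many hits fall short of the cut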
# Target sequence (P11940 whole entry, looked up): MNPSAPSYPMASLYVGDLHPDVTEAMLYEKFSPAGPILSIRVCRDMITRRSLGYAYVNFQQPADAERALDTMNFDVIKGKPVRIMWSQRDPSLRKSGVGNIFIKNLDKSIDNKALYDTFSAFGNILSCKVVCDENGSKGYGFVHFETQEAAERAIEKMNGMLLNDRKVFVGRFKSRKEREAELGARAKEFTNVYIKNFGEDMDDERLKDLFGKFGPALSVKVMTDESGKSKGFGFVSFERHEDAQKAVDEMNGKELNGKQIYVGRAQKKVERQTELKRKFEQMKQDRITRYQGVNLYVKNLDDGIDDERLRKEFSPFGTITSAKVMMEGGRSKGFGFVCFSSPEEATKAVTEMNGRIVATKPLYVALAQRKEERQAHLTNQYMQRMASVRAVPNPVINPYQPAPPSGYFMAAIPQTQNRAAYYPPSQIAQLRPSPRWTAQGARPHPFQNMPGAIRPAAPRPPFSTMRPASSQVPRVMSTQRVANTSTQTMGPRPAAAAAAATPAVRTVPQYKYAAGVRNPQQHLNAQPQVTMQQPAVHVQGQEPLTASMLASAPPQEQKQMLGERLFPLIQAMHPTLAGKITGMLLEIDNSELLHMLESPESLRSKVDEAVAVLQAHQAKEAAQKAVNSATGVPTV
# UUG fidelity – modulators of yeast start codon fidelity, primary screen, whole organism, S. cerevisiae, single point, plate reader | S. cerevisiae UUG-firefly luciferase reporter, luminescence/redox ratio | activity score, % at 18.7 µM | 350,000 tested, 0.13% active;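 active means replicate mean at a twofold rise or more, about +100% in these data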;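 further: firefly luciferase made from a UUG start codon reports start codon fidelity; reporter light over untreated wells divided by growth signal over untreated wells; some hits fall short of that in this replicate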
# Env fusion inh – inhibitors of HIV-1 Env-driven cell-cell fusion, primary screen, HeLa-JRFL effector, CEM21 target cells, luciferase; inhibition, % at 12.3 µM; 360,000 tested, 1.1% active; AID 651610, 2012;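 active means mean replicate inhibition score of at least 50 and every replicate individually at or above 50; inconclusive means only one of the two criteria met; inactive means mean below 50 and not all replicates reaching 50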;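 further: 0% = plate neutral controls and 100% = maraviroc near 300 nM; one replicate is shown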
# eIF4H FP inh retest – further read-out of eIF4H FP inh, marked with its call; inhibition, %; compound at 20 µM; confirmation average;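 mean of two retest wells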
# PABP FP inh retest – also measured in PABP FP inh; calls as there; inhibition, %; compound at 20 µM; confirmation repeats;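 mean of two retest wells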
# MT1-MMP act inh RFP – recorded beside MT1-MMP act inh, whose call it bears; RFP signal change, %; measured here: RFP expression control read;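 0 = vehicle wells; hits needed this value within 50% of zero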
# An asterisk follows results filed as active; i = inactive; ? = inconclusive; · = not tested or not shown.
SMILES,eIF4H FP inh,Rce1 inhib,CSC inhib,MT1-MMP act inh,MT1-MMP act inh RFP,PABP FP inh,UUG fidelity,Env fusion inh,others
COc1ccc(OC)c(Nc2nc3ccccc3n3cnnc23)c1,7,i,-3,8,4,13,-19,10,
CCc1cccc(CC)c1NC(=S)NCC(c1cccnc1)N(C)C (stereo unspecified),3,i,2,1,5,1,·,-20,
CC(C)Cn1c(CN(Cc2ccccc2)Cc2ccccc2)nc2c1c(=O)n(C)c(=O)n2C,-9,·,26,-6,-23,-14,28,14,
COc1ccc(Cl)cc1NC(=S)N1CCC(c2ccc(C)cc2)C1 (stereo unspecified),-18,i,40,-2,-1,16,-17,-15,
Nc1n[nH]c2cc(=O)n(-c3cccc(C(F)(F)F)c3)nc12,108,i,3,6,-3,-4,-13,-28,eIF4H FP inh retest=7;PABP FP inh retest=36
CCCCn1c(N)c(N(CCOC)C(=O)CCCc2nc3ccccc3s2)c(=O)[nH]c1=O,·,i,3,-3,-3,·,0,-1,
CCCNC(=O)NC(C)C12CC3CC(CC(C3)C1)C2 (stereo unspecified),3,·,12,7,1,-3,8,·,
O=[N+]([O-])c1ccc(NC(=S)NCCc2ccc(F)cc2)cc1,-4,i,2,-38,-39,1,·,3,
COCCN(CCOC)c1nc(-c2ccc(C)cc2)nc2ccccc12,-13,i,5,-4,-8,-1,-3,6,
COc1cccc(C(c2c(C)[nH]n(-c3ccccc3)c2=O)c2c(C)[nH]n(-c3ccccc3)c2=O)c1OC,-10,i,·,10,-1,-11,-18,-31,
Cn1c(C(=O)OC(C(=O)NC2CCCCC2)c2ccncc2)cc2sccc21 (stereo unspecified),-9,i,3,-7,-5,-4,-12,·,
O=C(CCCSc1nc2ccccc2[nH]1)N1CCN(c2ccccc2)CC1,-6,i,12,-3,-3,-4,-22,30,
CC(=O)c1ccc(-c2ccc(C(=O)NC3CCCCCC3)o2)cc1,-2,i,12,0,1,86,-9,1,eIF4H FP inh retest=2;PABP FP inh retest=-7
Cc1cnc([N+](=O)[O-])n1CCOC(=O)NC(=O)c1cccc(F)c1,29,i,·,1,1,10,·,-12,
CCC1CCCCN1CCCNC(=O)CCCOc1cc(=O)n(C)c2ccccc12 (stereo unspecified),1,i,-1,1,3,-3,·,-20,
Cc1ccc(C(=O)NNC(=S)NC(=O)c2ccco2)cc1,2,i,17,-2,-3,-8,·,27,
CC/C(=N\NS(=O)(=O)c1ccc(C)cc1)c1ccco1,-3,i,-15,0,-3,2,-15,6,
FC(F)(F)c1nc2ncc(Cl)cc2[nH]1,4,i,10,-5,-1,-4,-8,-6,
O=C(c1ccco1)N1CCN(Cc2c(F)cccc2Cl)CC1,-7,i,-13,0,0,-14,-15,8,
CN(CCc1ccccc1)C(=O)c1ccc(NC(=O)Cc2ccc(NC(=O)C3CCN(C(=O)C4CCCC4)CC3)cc2)cc1,·,·,·,-4,-23,·,-9,21,
O=C(Nc1cc2c3c(c1)CC(=O)N3CCC2)c1c(F)cccc1F,·,i,-1,7,0,·,·,-6,
Cc1ccc(SCc2nnc(NC(=O)c3ccccc3)s2)cc1,0,i,1,0,8,-7,-21,-12,
CCc1cccc2c(C(=O)COC(=O)C3=NNC(=O)CC3)c[nH]c12,5,i,-15,-2,-5,-3,·,-10,
COc1c(C)cc(C(=O)C2CCCN(C(=O)c3ccc4[nH]ccc4c3)C2)cc1C (stereo unspecified),?,i,-5,4,4,?,-4,10,
CC(=O)N(c1ccccc1)C1SC(=O)N(c2ccccc2)C1=O (stereo unspecified),-6,i,16,2,8,1,·,·,
# The listing continues:
SMILES,eIF4H FP inh,Rce1 inhib,CSC inhib,MT1-MMP act inh,MT1-MMP act inh RFP,PABP FP inh,UUG fidelity,Env fusion inh,others
CN(CCc1cnn(C)c1)Cc1cn(C)nc1-c1ccccc1F,3,i,0,-3,0,5,-9,-1,
COc1ccc(/C=C/C(=O)OCC(=O)Nc2cccc(S(=O)(=O)NC3=NCCCCC3)c2)cc1,·,·,-19,4,6,·,-7,8,
Cc1ccc(COc2ccc(S(=O)(=O)N3CCCC3)cc2C(N)=O)cc1,-3,i,6,-5,-4,-1,-8,24,
CC(=O)OCCN1c2ccccc2Sc2cnccc21,·,·,·,-15,-9,·,-18,?,
Fc1ccccc1CNC(=S)Nc1ccc(Cl)cc1,0.6*,i,9,1,1,59*,·,5,eIF4H FP inh retest=106*;PABP FP inh retest=83*
CCOC(=O)C1=C(C)NC2=C(C(=O)CCC2)C1c1coc2ccccc2c1=O (stereo unspecified),-5,i,-12,-2,6,11,-8,·,
Cc1ccc(C(O)CN2C3=NCCN3c3ccccc32)cc1 (stereo unspecified),-2,i,-12,-4,3,-4,-12,·,
C=CCOc1ccc(C[C@H](N)C(=O)NC[C@H]2O[C@@H](n3ccc(N)nc3=O)[C@H](O)[C@@H]2O)cc1,·,·,·,4,7,·,-10,14,
O=[N+]([O-])c1ccc(N2CCc3ccccc3C2)nc1,-1,i,0,4,-4,14,-23,28,
O=C1CSC(c2cccc(F)c2)N1c1ccccc1 (stereo unspecified),-4,i,-3,-2,-2,9,-17,0,
O=C1CCCC2=C1C(c1cccs1)CC(=O)N2c1ccc(F)cc1 (stereo unspecified),-4,i,-6,1,-4,-1,-12,-8,
COc1ccc(C(=O)NC(C)Cc2cnccn2)cc1OC1CCN(C(C)C)CC1 (stereo unspecified),18,i,-11,-3,2,5,3,-22,
COc1ccc(/C(C)=N\n2cnnc2)cc1,12,i,-12,-2,1,-2,-9,·,
O=C(Nc1ccnn1C1CCN(Cc2c(F)cccc2Cl)CC1)C1CCCC1,·,i,-15,1,-1,·,3,2,
CCN(CC)S(=O)(=O)c1ccc(S(=O)(=O)N2CCC(N3CCCCC3)CC2)cc1,-6,i,5,2,1,3,-10,12,
C=C(C)C(=O)Nc1cccc(C(C)=O)c1,6,i,-18,1,5,-3,-14,·,
Cc1ccc(OCCOc2ccc(S(=O)(=O)N3CCCC3)cc2C(N)=O)cc1,·,·,·,3,-1,·,-14,2,
Cc1cc(C)c(S(=O)(=O)Nc2ccncc2)cc1C,0,i,-36,4,0,-6,-16,15,
COCc1nnc(NC(=O)C2CC(=O)N(c3ccc(C)c(Cl)c3)C2)s1 (stereo unspecified),·,i,-17,5,1,·,·,-18,
O=C(c1cc2cc([N+](=O)[O-])ccc2s1)N1CCOCC1,10,i,-3,-1,0,12,·,-4,
O=S(=O)(c1cc(Cl)ccc1Br)N1CCCCC1,-5,i,-17,-3,-1,-6,5,29,
COCCCN(Cc1ccco1)C(=O)Cn1ncc2c([nH]c3ccccc32)c1=O,-17,i,-8,0,1,14,-6,9,
O=C(NC1CCCC1)C(c1c[nH]c2ccccc12)N(C(=O)Cn1nnc(-c2ccc(Cl)cc2)n1)c1ccccc1 (stereo unspecified),-3,i,-9,-1,-7,-13,-16,0,
CC(C)C(O)C1CCN(Cc2nc(Cc3ccccc3Cl)no2)CC1 (stereo unspecified),-13,i,-10,1,3,-5,·,21,
O=C(COc1cccnc1[N+](=O)[O-])NCc1ccco1,?,i,-2,2,9,?,·,7,

# The closing 2 records of the section above are carried over, then new ones follow.
SMILES,eIF4H FP inh,Rce1 inhib,CSC inhib,MT1-MMP act inh,MT1-MMP act inh RFP,PABP FP inh,UUG fidelity,Env fusion inh,others
CC(C)C(O)C1CCN(Cc2nc(Cc3ccccc3Cl)no2)CC1 (stereo unspecified),-13,i,-10,1,3,-5,·,21,
O=C(COc1cccnc1[N+](=O)[O-])NCc1ccco1,?,i,-2,2,9,?,·,7,
COc1ccc(-c2nc3ccccc3s2)cc1,-6,·,·,0,-1,-7,·,-49,
COc1c(C)cc(C(=O)C2CCCN(Cc3cccc4nccnc34)C2)cc1C (stereo unspecified),1,i,33,2,7,10,·,7,
Cc1ccc(C(=O)NCC(=O)N2CCCCCC2)cc1,-9,i,-20,-5,-3,6,-8,-3,
CCC(=O)N1CCN(c2ccc(Cl)cc2NC(=O)Cc2ccccc2)CC1,-1,·,-7,-7,-4,-4,-8,·,
O=C(CSc1cccc[n+]1[O-])CSc1cccc[n+]1[O-],-2,i,7,8,5,0,·,8,
N#Cc1ccsc1NC(=O)C1=COCCO1,·,·,-12,1,4,·,-3,·,
Cc1ccc(Nc2n[nH]c(=S)s2)cc1,·,·,·,-3,-1,·,-18,-50,
C/C(CC(=O)Nc1cc(Cl)ccc1C)=N\NC(N)=O,-2,i,-7,3,3,-9,-14,-2,
CCCCN(C(=O)c1ccc(N(C)S(=O)(=O)c2ccc(C)cc2)cc1)c1c(N)n(CCC)c(=O)[nH]c1=O,-4,i,0,-2,2,-11,-11,-6,
Cc1ccc2c(c1)N(CC(=O)NCCCN1CC(C)CC(C)C1)C(=O)c1cccnc1O2 (stereo unspecified),3,i,·,-2,4,-3,20,-8,
CCOC(=O)C1=C(N)OC2=C(C(=O)CC(C)(C)C2)C1c1ccoc1 (stereo unspecified),-6,i,-4,-10,1,4,-2,·,
Cc1ccc(C(=O)Nc2cccc(C(=O)N3CCOCC3)c2)cc1Cl,-1,i,-10,-3,-6,7,10,·,
Cc1ccnc2c(N3C(=O)C4C5C=CC(C5)C4C3=O)cccc12 (stereo unspecified),9,i,-12,0,4,2,1,·,
CCOc1ccc(-c2c(C)sc3nc[nH]c(=O)c23)cc1,-6,i,3,0,-8,-5,-13,8,
COc1ccc(CCNC(=O)CCCCCNC(=O)N2CCn3c2nc2ccccc23)cc1OC,-11,i,-10,0,-6,2,-3,8,
O=C(OCC(=O)N1CCCCCC1)c1ccc(Cl)nc1,·,·,16,-1,0,·,-21,-11,
Cc1ccccc1CSCC(=O)c1c(N)n(C)c(=O)n(C)c1=O,-1,i,0,-1,-3,-6,-20,·,
CCOC(=O)c1ccc(N2CSC3=C(C#N)C(c4ccc(OC)cc4OC)CC(=O)N3C2)cc1 (stereo unspecified),-10,i,-20,0,4,7,-5,11,
Cc1ccc(S(=O)(=O)N2CCN(C(=O)COC(=O)/C=C/c3ccc(Cl)cc3)CC2)c(C)c1,·,·,·,-6,-1,·,-15,-5,
COc1cc2ccccc2cc1C(=O)Nc1nnc(-c2ccncc2)o1,2,i,-3,2,0,-4,-26,3,
CC(C)(C)c1ccc(C(=O)NCC(=O)OCC(=O)NC(=O)NC2CCCC2)cc1,·,·,-16,4,6,·,0,-4,
CC(=O)c1cc(C#N)c(NCc2cc(-c3ccccc3)no2)nc1C,-13,i,-7,3,2,-2,-7,0,
COc1ccccc1NC(=O)/C=C1\NC(=O)CS1,-3,i,-4,0,0,-11,-4,-2,
CS(=O)(=O)N(CC(=O)Nc1cccnc1)c1ccc2c(c1)OCCO2,6,i,-15,2,3,0,-4,·,
O=C(NCCc1ccccc1)c1ccccc1C(=O)NCCc1ccccc1,·,i,-4,-4,5,·,-3,-9,
Cc1cc(/C=N/NC(=O)c2ccccn2)c(C)n1-c1cccc([N+](=O)[O-])c1,-4,i,-4,0,-1,4,·,-8,

# Rows are unselected; about 2.9% have a hit in one of these screens.
